Source: PubChem (Johns Hopkins Ion Channel Center)
KCNQ2 pot: potentiators of rat KCNQ2 potassium channel; B-score at 10 µM; CHO-K1 KCNQ2, FluxOR thallium flux fluorescence; active compounds read high; hit rate 0.54% among 310,000; O88943; AID 2239;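 active = fluorescence ratio B-score at least 3 SD of library B-scores, with initial fluorescence B-score within 3 SD, cut at about 5.3 in these data; same plate scores as AID 2156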;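 note: B-score of peak minus minimum over baseline fluorescence ratio after K+ and Tl+ stimulus; positive B-score means potentiation of KCNQ2 with more thallium influx and brighter signal; only the inactives scoring about 0 or higher are listed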
Target sequence (O88943 whole entry, looked up): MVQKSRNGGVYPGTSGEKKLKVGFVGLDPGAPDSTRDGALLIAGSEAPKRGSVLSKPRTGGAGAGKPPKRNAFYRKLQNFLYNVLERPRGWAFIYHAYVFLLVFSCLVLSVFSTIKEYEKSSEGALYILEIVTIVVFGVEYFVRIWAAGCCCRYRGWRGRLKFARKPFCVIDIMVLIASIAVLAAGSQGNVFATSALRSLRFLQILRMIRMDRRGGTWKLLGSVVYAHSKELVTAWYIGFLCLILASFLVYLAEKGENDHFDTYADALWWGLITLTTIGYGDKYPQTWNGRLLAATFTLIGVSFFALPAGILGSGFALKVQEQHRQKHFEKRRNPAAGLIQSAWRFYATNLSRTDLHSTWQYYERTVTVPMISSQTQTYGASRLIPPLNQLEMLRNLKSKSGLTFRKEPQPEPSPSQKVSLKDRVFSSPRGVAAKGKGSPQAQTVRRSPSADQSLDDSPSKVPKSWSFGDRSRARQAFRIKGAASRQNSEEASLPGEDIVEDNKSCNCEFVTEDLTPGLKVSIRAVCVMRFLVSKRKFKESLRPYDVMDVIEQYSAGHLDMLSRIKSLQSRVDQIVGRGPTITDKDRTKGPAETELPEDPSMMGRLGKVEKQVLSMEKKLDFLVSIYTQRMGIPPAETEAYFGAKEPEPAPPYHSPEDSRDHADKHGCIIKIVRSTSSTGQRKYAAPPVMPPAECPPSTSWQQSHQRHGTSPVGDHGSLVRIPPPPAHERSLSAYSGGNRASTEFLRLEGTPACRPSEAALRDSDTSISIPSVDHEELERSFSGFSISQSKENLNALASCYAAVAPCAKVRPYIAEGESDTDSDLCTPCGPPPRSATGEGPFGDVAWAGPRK
KCNQ2 pot baseline: also measured in KCNQ2 pot; calls as there; B-score; compound at 10 µM; measured here: initial fluorescence intensity artifact check;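 brightness before thallium and not channel activity; 0 = typical well and far values either way flag optical interference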
Active calls of the source: *.

The opening 7 records, to show the layout:
For COC(=O)C1=C(N)Oc2cc(C)n(Cc3ccccc3)c(=O)c2C1c1ccccc1 (stereo not given) the results were KCNQ2 pot 0.81 and KCNQ2 pot baseline 0.31.
For Cc1ccccc1-c1nnc(CN2CCN(C(=O)c3ccco3)CC2)o1 the results were KCNQ2 pot 0.35 and KCNQ2 pot baseline 1.6.
`O=C(c1ccc(-n2ccnc2)cc1)N1CCCC(CO)(Cc2cccc(Cl)c2)C1` (stereo not given) gave KCNQ2 pot 0.59 and KCNQ2 pot baseline 0.2.
`O=[N+]([O-])c1ccccc1OCCCNCc1ccccc1` gave KCNQ2 pot 0.15 and KCNQ2 pot baseline 0.03.
For CCC(=O)N1CCc2cc(S(=O)(=O)CCC(=O)Nc3ccc(C)c(F)c3)ccc21 the results were KCNQ2 pot 0.92 and KCNQ2 pot baseline 0.08.
CC(C)CC(=O)NC(C)C(c1cccs1)N1CCOCC1 (stereo not given) was read as KCNQ2 pot 1.5 and KCNQ2 pot baseline -1.7.
Screening O=[N+]([O-])c1c(C(Cl)Cl)nn(-c2ccccc2)c1N1CCOCC1 returned KCNQ2 pot 0.28 and KCNQ2 pot baseline 0.95.

This part in full, from the start:
For COC(=O)C1=C(N)Oc2cc(C)n(Cc3ccccc3)c(=O)c2C1c1ccccc1 (stereo not given) the results were KCNQ2 pot 0.81 and KCNQ2 pot baseline 0.31.
For Cc1ccccc1-c1nnc(CN2CCN(C(=O)c3ccco3)CC2)o1 the results were KCNQ2 pot 0.35 and KCNQ2 pot baseline 1.6.
`O=C(c1ccc(-n2ccnc2)cc1)N1CCCC(CO)(Cc2cccc(Cl)c2)C1` (stereo not given) gave KCNQ2 pot 0.59 and KCNQ2 pot baseline 0.2.
`O=[N+]([O-])c1ccccc1OCCCNCc1ccccc1` gave KCNQ2 pot 0.15 and KCNQ2 pot baseline 0.03.
For CCC(=O)N1CCc2cc(S(=O)(=O)CCC(=O)Nc3ccc(C)c(F)c3)ccc21 the results were KCNQ2 pot 0.92 and KCNQ2 pot baseline 0.08.
CC(C)CC(=O)NC(C)C(c1cccs1)N1CCOCC1 (stereo not given) was read as KCNQ2 pot 1.5 and KCNQ2 pot baseline -1.7.
Screening O=[N+]([O-])c1c(C(Cl)Cl)nn(-c2ccccc2)c1N1CCOCC1 returned KCNQ2 pot 0.28 and KCNQ2 pot baseline 0.95.
`O=C(CSc1ncc(-c2ccc(F)cc2)[nH]1)Nc1cccc(O)c1` gave KCNQ2 pot 0.65 and KCNQ2 pot baseline -1.5.
O=C(Cn1nnc(-c2ccccc2)n1)N1CCN(c2ccc(F)cc2)CC1 was read as KCNQ2 pot 1.1 and KCNQ2 pot baseline 0.89.
`OC1(c2cccnc2)CCN(Cc2nnnn2Cc2ccccc2)CC1` gave KCNQ2 pot 0.02 and KCNQ2 pot baseline 0.1.
For CCOC(=O)CC1ON(C)C(=O)N1c1ccc([N+](=O)[O-])cc1 (stereo not given) the results were KCNQ2 pot 1.3 and KCNQ2 pot baseline 0.21.
Screening CCCCc1ccc(NC(=O)C2CCCC2)cc1 returned KCNQ2 pot 7* and KCNQ2 pot baseline -0.41*.
`CCOC(=O)c1cc2c(ccn2C)n1CC(=O)N1CCC(C)CC1` gave KCNQ2 pot 0.87 and KCNQ2 pot baseline -2.3.
COc1ccc(-c2coc3cc(O)cc(O)c3c2=O)cc1 was read as KCNQ2 pot 1.5 and KCNQ2 pot baseline 0.28.
CCNC(=S)NCCN1CCOCC1 was read as KCNQ2 pot 0.04 and KCNQ2 pot baseline -0.28.
For Cc1ccccc1NC(=O)c1cc(S(=O)(=O)Nc2cccc(C(=O)O)c2)ccc1Cl the results were KCNQ2 pot 0.75 and KCNQ2 pot baseline -1.9.
Screening CCCCN1C2CCCC1CC(NC(=O)c1ccc(OC)c(OC)c1)C2 (stereo not given) returned KCNQ2 pot 0.82 and KCNQ2 pot baseline -1.4.
CC(C)CC(NC(=O)c1ccc(Cl)cc1)C(=O)O (stereo not given) was read as KCNQ2 pot 0.47 and KCNQ2 pot baseline -0.19.
Screening CC(C)(C)c1ccc(SCC(N)=O)cc1 returned KCNQ2 pot 0.04 and KCNQ2 pot baseline 1.7.
Cc1ccc(S(=O)(=O)NCCc2nc3ccccc3[nH]2)cc1 was read as KCNQ2 pot 1.3 and KCNQ2 pot baseline 1.6.

Not a retest: an excerpt of the list.
For COC(=O)C1=C(N)Oc2cc(C)n(Cc3ccccc3)c(=O)c2C1c1ccccc1 (stereo not given) the results were KCNQ2 pot 0.81 and KCNQ2 pot baseline 0.31.
For Cc1ccccc1-c1nnc(CN2CCN(C(=O)c3ccco3)CC2)o1 the results were KCNQ2 pot 0.35 and KCNQ2 pot baseline 1.6.

(cont.)
For Cc1ccc(CN(CC(=O)NCCc2ccccc2)C(=O)CCCC(=O)Nc2cc(C)on2)cc1 the results were KCNQ2 pot 1.2 and KCNQ2 pot baseline 0.03.
Screening Cn1ncc(Br)c1C(=O)NC1CCCCC1 returned KCNQ2 pot 0.03 and KCNQ2 pot baseline -0.51.
Cc1cccc(NC(=O)c2ccc(S(=O)(=O)NCc3cccnc3)cc2)c1 was read as KCNQ2 pot 2.3 and KCNQ2 pot baseline 0.03.
`CC(C)C[C@H](CO)Nc1nc(N(C)c2cccc(Cl)c2)c2ncn(C(C)C)c2n1` gave KCNQ2 pot 0.73 and KCNQ2 pot baseline -0.65.
`Cc1cccc(-c2n[nH]c([N+](=O)[O-])n2)c1` gave KCNQ2 pot 1.4 and KCNQ2 pot baseline 0.71.
Screening COc1ccccc1CCC(=O)N1CCC(n2nccc2NC(=O)C2CCOC2)CC1 (stereo not given) returned KCNQ2 pot 0.08 and KCNQ2 pot baseline 0.59.
`COc1ccc(C2NC(=O)CS2)cc1OC` (stereo not given) gave KCNQ2 pot 0.27 and KCNQ2 pot baseline 1.
Screening CCc1ccc(OCC(=O)N/N=C(\C)c2ccc3c(c2)OCCO3)cc1 returned KCNQ2 pot 0.72 and KCNQ2 pot baseline -1.2.
`Cc1ccc(S(=O)(=O)NCC(C)NS(=O)(=O)c2ccccc2[N+](=O)[O-])cc1` (stereo not given) gave KCNQ2 pot 1 and KCNQ2 pot baseline -0.26.
COc1ccc(CNC(=O)CN2CCC(n3nnc4cc(F)ccc43)CC2)cc1 was read as KCNQ2 pot 0.16 and KCNQ2 pot baseline -0.02.
`CCc1nc(N)c(C#N)c(-c2ccccc2OC)c1C` gave KCNQ2 pot 0.43 and KCNQ2 pot baseline 0.03.
Screening Cn1c(SCc2ccccc2)nnc1-c1ccncc1 returned KCNQ2 pot 0.44 and KCNQ2 pot baseline 0.05.
COc1ccc(CCNC(=O)CN(c2cc(C)cc(C)c2)S(=O)(=O)c2c(C)noc2C)cc1OC was read as KCNQ2 pot 0.17 and KCNQ2 pot baseline -0.04.
Screening CCOC(=O)c1ccccc1NC(=O)CSc1nnc(C)c(=O)[nH]1 returned KCNQ2 pot 0.71 and KCNQ2 pot baseline 0.55.
O=C(Nc1ccc(S(=O)(=O)Nc2ccc(Cl)cc2)cc1)C1CCCO1 (stereo not given) was read as KCNQ2 pot 0.07 and KCNQ2 pot baseline 0.36.
For O=C(CCNS(=O)(=O)c1cccc2nsnc12)Nc1ccc2c(c1)OCCO2 the results were KCNQ2 pot 0.22 and KCNQ2 pot baseline 0.57.
Screening Nc1nc(Nc2ccc(Cl)cc2)c(NC=O)c(=O)[nH]1 returned KCNQ2 pot 1.1 and KCNQ2 pot baseline -1.1.
For COc1ccc(CCC(=O)Nc2nnc(C(C)(C)C)s2)cc1 the results were KCNQ2 pot 0.12 and KCNQ2 pot baseline -1.8.
`O=C(CCC1CCCN(C(=O)c2ccc3c(c2)OCCO3)C1)NCc1ccccc1F` (stereo not given) gave KCNQ2 pot 0.05 and KCNQ2 pot baseline 0.95.
Screening C=C(C)C(=O)Nc1cccc(C2=NOC3(C2)C[C@H](C(N)=O)N(C(=O)CC)C3)c1 (stereo not given in full) returned KCNQ2 pot 0.04 and KCNQ2 pot baseline -0.01.
For Cc1cccc(N2CCN(C(=O)CN3C(=O)NC(C)(C)C3=O)CC2)c1C the results were KCNQ2 pot 0.01 and KCNQ2 pot baseline -1.8.
Screening CC1CCc2cc(F)cc3c(O)c(C(=O)NCc4ccco4)c(=O)n1c23 (stereo not given) returned KCNQ2 pot 0.37 and KCNQ2 pot baseline -0.27.
Screening COc1ccccc1NC(=O)Nc1ccccc1C(=O)NCCCN1CCOCC1 returned KCNQ2 pot 0.51 and KCNQ2 pot baseline -0.24.
For COc1ccc(C2(CNC(=O)c3cccc([N+](=O)[O-])c3)CCOCC2)cc1OC the results were KCNQ2 pot 1.2 and KCNQ2 pot baseline -1.7.
For CCCn1c(NC(=O)C2CCN(C(=O)c3ccccc3C)CC2)nc2ccccc21 the results were KCNQ2 pot 0.19 and KCNQ2 pot baseline -1.3.
For Cc1n[nH]c(C)c1CCCOc1ccccc1 the results were KCNQ2 pot 1.7 and KCNQ2 pot baseline 0.78.
CCOc1ccc(OCC)c(NC(=O)CSc2nnc(-c3cccnc3)o2)c1 was read as KCNQ2 pot 0.84 and KCNQ2 pot baseline 0.55.
For Cc1ccc(-c2nnn(CC(=O)N(Cc3cccs3)C(C(=O)NC3CCCC3)c3ccncc3)n2)cc1 (stereo not given) the results were KCNQ2 pot 0.37 and KCNQ2 pot baseline -1.4.
Screening Fc1ccc(NC(=S)N/N=C/c2ccc(F)c(F)c2)cc1 returned KCNQ2 pot 0.03 and KCNQ2 pot baseline 1.4.
For COc1cccc(CN2CCC(n3nccc3NC(=O)CCOc3ccccc3)CC2)c1O the results were KCNQ2 pot 0.52 and KCNQ2 pot baseline -1.9.
For CCc1ccc(OCC(=O)OCC(=O)c2ccc3c(c2)NC(=O)CO3)cc1 the results were KCNQ2 pot 0.71 and KCNQ2 pot baseline 0.64.
For O=C(Nc1ccc(OC(F)F)cc1)c1ccccn1 the results were KCNQ2 pot 0.81 and KCNQ2 pot baseline -0.02.
`O=C(c1ccccc1NS(=O)(=O)c1ccc(F)cc1)N1CCc2ccccc21` gave KCNQ2 pot 0.91 and KCNQ2 pot baseline -2.1.
`CCC(=O)c1ccc(OCc2ccc(C(=O)OC)o2)c(OC)c1` gave KCNQ2 pot 0.27 and KCNQ2 pot baseline -0.03.
COCCN(CCOC)S(=O)(=O)c1ccc(C(=O)Nc2ccc([N+](=O)[O-])cc2OC)cc1 was read as KCNQ2 pot 0.72 and KCNQ2 pot baseline -0.01.
Screening C=CCc1ccc(OCC(O)COCC)c(OC)c1 (stereo not given) returned KCNQ2 pot 1.2 and KCNQ2 pot baseline 0.07.
For CCN1CCN(C(=S)Nc2ccccc2Cl)CC1 the results were KCNQ2 pot 0.26 and KCNQ2 pot baseline 0.03.
Screening O=C(CN(C(=O)CNC(=O)c1ccco1)c1ccc(Cl)c(Cl)c1)NC1CCCCC1 returned KCNQ2 pot 0.85 and KCNQ2 pot baseline -0.6.
For CCOC(=O)c1sc(NC(=O)c2ccccc2OCC)nc1C the results were KCNQ2 pot 0.56 and KCNQ2 pot baseline -2.1.
For CC1CC(=S)Nc2ccccc2N1C(=O)Nc1ccccc1 (stereo not given) the results were KCNQ2 pot 0.26 and KCNQ2 pot baseline 4.
CCOc1ccc(NC(=O)Nc2ccc3nsnc3c2)cc1 was read as KCNQ2 pot 0.73 and KCNQ2 pot baseline -3.2.
For CCSc1nnc([C@H](Cc2c[nH]c3ccccc23)NC(=O)OC(C)(C)C)o1 the results were KCNQ2 pot 1.3 and KCNQ2 pot baseline -0.37.
Screening O=C(NCC1CCCO1)c1onc(CSc2ccc(F)cc2)c1C(=O)O (stereo not given) returned KCNQ2 pot 0.44 and KCNQ2 pot baseline -0.26.
Screening CCCCNC(=O)CCn1nc(-c2ccc(C)cc2)c2ccccc2c1=O returned KCNQ2 pot 0.17 and KCNQ2 pot baseline -1.1.
`CCOC(=O)N1CCN(C(=O)COC(=O)c2ccc(S(=O)(=O)N(CC)CC)cc2)CC1` gave KCNQ2 pot 0.25 and KCNQ2 pot baseline 0.55.
For CCCCOC(=O)CCc1nc2ccccc2[nH]c1=O the results were KCNQ2 pot 1.3 and KCNQ2 pot baseline 0.95.
`CCOC(=O)c1[nH]c2ccc(OC)cc2c1NC(=O)CCN1CCCC(C)C1` (stereo not given) gave KCNQ2 pot 1.2 and KCNQ2 pot baseline 3.3.
Clc1ccc(C2=NNC(=NCC3CCCO3)SC2)cc1 (stereo not given) was read as KCNQ2 pot 1.6 and KCNQ2 pot baseline 0.
For N=c1c2c(-c3ccccc3)c(-c3ccccc3)oc2ncn1Cc1ccco1 the results were KCNQ2 pot 0.42 and KCNQ2 pot baseline 1.2.
C[C@H](NC(=O)N1CCn2c1nc1ccccc12)C(=O)NC1CCCCC1 was read as KCNQ2 pot 1.8 and KCNQ2 pot baseline -0.54.
Cc1cccc(C(=O)N/N=C2\CS(=O)(=O)N(C)c3ccsc32)c1 was read as KCNQ2 pot 0.03 and KCNQ2 pot baseline 2.4.
`Cc1ccccc1OCc1nnc(SCCN2CCCC2)n1-c1ccccc1` gave KCNQ2 pot 0.45 and KCNQ2 pot baseline 0.44.
O=C(c1ccc(CS(=O)c2cccc(Cl)c2)o1)N1CCN(C2CCCCC2)CC1 (stereo not given) was read as KCNQ2 pot 1.5 and KCNQ2 pot baseline -0.18.
`Cc1ccc(SCCNC(=O)/C=C/c2ccc([N+](=O)[O-])cc2)cc1` gave KCNQ2 pot 6.2* and KCNQ2 pot baseline 0.04*.
CC(C)Cc1cc(C(=O)Nc2ccc(F)cc2F)no1 was read as KCNQ2 pot 0.29 and KCNQ2 pot baseline 0.08.
Screening Cc1sc2nc3n(c(=O)c2c1C)CCCCC3 returned KCNQ2 pot 0.89 and KCNQ2 pot baseline -1.9.
Cc1cc(C)nc(SCC(=O)c2ccc(Cl)cc2)n1 was read as KCNQ2 pot 0.53 and KCNQ2 pot baseline 0.65.
`CCN(C(=O)COC(=O)CNC(=O)c1cccc(C)c1)c1c(N)n(Cc2ccccc2)c(=O)[nH]c1=O` gave KCNQ2 pot 0.06 and KCNQ2 pot baseline 2.2.
O=C(Oc1ccc(F)cc1)c1cccnc1 was read as KCNQ2 pot 0.62 and KCNQ2 pot baseline -0.74.

The list is partial, so the mix of outcomes need not match the whole.
